# PD-1 reverse act: reversal of PD-1 mediated T-cell inhibition. primary human CD4 T cells, PD-L1 beads, CellTiter-Glo 96 h. activation, % (test concentration not listed). 29,000 tested, under 10 active;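 active = replicate mean of 50% or more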;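 also: 0% = median vehicle wells and 100% = positive control; 100 nL library stock added to about 50 µL; numbers are from one replicate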
# MITF inh: blocks MITF activity. TRPM1 promoter luciferase, luminescence, 24 h. 37,000 compounds, 0.28% hits. inhibition, % (concentration not given with the values). AID 2240;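 active = most replicates at 85% or more, or half of them and the mean; inconclusive = half reach 85% but not the mean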;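 also: human melanocyte line stably carrying TRPM1 promoter luciferase reporter; 0% = vehicle wells and 100% = a positive control; the first replicate is given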
# YB-1 expression: YB-1 expression inhibition; U2OS, qRT-PCR YB-1 vs CDIP delta delta Cp, 16 h; stronger effect = higher value; zero = DMSO, each unit about twofold; delta delta Cp (YB-1 minus CDIP) (concentration not given with the values); 30,000 compounds, 0.37% hits; AID 434959;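 active = delta delta Cp rounded down to an integer at or above 3, about 3 SD of DMSO wells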;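 also: higher means less YB-1 transcript or more CDIP transcript relative to DMSO; stock transfer was 100 nL into about 100 µL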
# Shh pathway inh: blocks Sonic Hedgehog signaling | Shh-LIGHT2 Gli-luciferase reporter, 30 h | 22,000 compounds, 2.1% hits | AID 2313 | inhibition, % (test concentration not listed);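 active = replicate mean of 65% or more; inconclusive = mean lower but half the replicates past it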;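 also: pathway switched on by Shh-conditioned medium diluted 1 in 25 in low serum; 100 nL library stock added to about 40 µL; 0% = median of neutral wells and 100% = positive control level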
# Starred values were filed as active, the others as inactive; ? = inconclusive; nt = not tested or not shown; & = joins results of further samples; ! = repeats disagree. Not all compounds are listed, so the mix of outcomes need not match the whole.
SMILES,PD-1 reverse act,MITF inh,YB-1 expression,Shh pathway inh
C[C@@H]1CCCCO[C@H](CN(C)C(=O)Cc2ccccc2)[C@@H](C)CN([C@H](C)CO)C(=O)c2cc(NC(=O)Cc3ccccc3)ccc2O1,-3.6,-3,0.34,9
CNC[C@H]1Oc2ccc(NC(=O)C3CCCCC3)cc2C(=O)N([C@H](C)CO)C[C@@H]1C,2.1,5,-0.046,nt
Cc1ccc(-c2cc(C(F)F)n3ncc(C(=O)N4CCCCC4c4cccnc4)c3n2)cc1 (stereo not given),-4.8,29,nt,nt
COc1ccc(NC(=O)Nc2ccc3c(c2)C(=O)N([C@H](C)CO)C[C@@H](C)[C@@H](CN(C)C(=O)Nc2cccc4ccccc24)O3)cc1,0.2,-14,0.025,-6
CCc1ccc(OCC(=O)Nc2ccccc2C(N)=O)c(Br)c1,-1.0,-13,nt,nt
C[C@H](CO)N1C[C@H](C)[C@H](CN(C)S(=O)(=O)c2ccc(Cl)cc2)Oc2c(NC(=O)c3nc4ccccc4s3)cccc2C1=O,-0.7,20,0.28,3
C[C@H]1CN([C@@H](C)CO)C(=O)Cc2cc(NC(=O)C3CCCCC3)ccc2O[C@@H]1CN(C)S(=O)(=O)c1cccs1,0.9,-1,0.3,-5
CCc1ccc(-c2cn3c4ccccc4nc3n2CCN2CCOCC2)cc1,-5.2,25,nt,nt
C[C@@H]1CN([C@H](C)CO)C(=O)c2cc(NC(=O)Cc3cn(C)c4ccccc34)ccc2O[C@@H]1CN(C)S(=O)(=O)c1ccccc1,1.5,7,-0.12,nt
COc1cc2c(cc1OC)CN(C(=O)Cn1c(C)cc(C)c(C#N)c1=S)CC2,-0.2,-3,-0.00072,-10
C[C@H](CO)N1C[C@H](C)[C@H](CN(C)C(=O)Nc2ccc3c(c2)OCO3)Oc2c(NC(=O)Nc3ccc(F)cc3)cccc2C1=O,2.5,10,-0.028,9
CCOc1ccc(NC(=O)CSc2nc3nc(C)cc(C)n3n2)cc1,1.6,21,nt,nt
O=C(NCc1ccco1)c1n[nH]c(=O)c2ccccc12,-0.9,-39,nt,nt
C[C@@H]1CN([C@@H](C)CO)C(=O)c2cc(NC(=O)c3ccncc3)ccc2O[C@@H]1CN(C)Cc1ccccc1,-0.1,-1,0.51,-4
O=C(Cn1cc(C(=O)c2ccccc2F)c2ccccc21)Nc1cccc(C(F)(F)F)c1,-2.4,39,nt,nt
Cc1ccc(S(=O)(=O)N(C)C[C@H]2Oc3ccc(NS(=O)(=O)c4c(C)noc4C)cc3CC(=O)N([C@@H](C)CO)C[C@@H]2C)cc1,nt,-7,0.046,-7
Cc1cccc(-n2c(SCC(=O)O)nnc2-c2cccs2)c1C,-1.4,-3,nt,nt
C[C@H]1CN([C@@H](C)CO)C(=O)c2cc(NS(C)(=O)=O)ccc2O[C@@H]1CN(C)Cc1ccc(C(=O)O)cc1,0.9,2,0.045,-34
Cc1c(NC(=O)CN2C(=O)c3ccccc3S2(=O)=O)c(=O)n(-c2ccccc2)n1C,2.3,6,nt,nt
C[C@H]1CN([C@@H](C)CO)C(=O)Cc2cc(NS(=O)(=O)c3ccc(F)cc3)ccc2O[C@H]1CN(C)CC1CC1,nt,-4,-0.86,2
O=S1(=O)CCC(N=Cc2ccc(-c3cccc(C(F)(F)F)c3)o2)C1 (stereo not given),0.1,-23,-0.37,-28
C[C@H]1CN([C@@H](C)CO)C(=O)c2cc(NC(=O)Nc3ccccc3)ccc2O[C@H]1CN(C)C(=O)Nc1cccc2ccccc12,-0.6,-5,-0.54,-17
C[C@H](CO)N1C[C@H](C)[C@H](CN(C)Cc2ccc(-c3ccccc3)cc2)Oc2ccc(NC(=O)Nc3ccc(C(F)(F)F)cc3)cc2CC1=O,-2.7,5,0.14,-25
Clc1cccc(Cl)c1Cn1nnc(N2CCCC2)n1,0.6,-43,-0.38,nt
CC(=O)Nc1cccc2ncccc12,-0.3,-8,-0.52,-23

# (next part)
SMILES,PD-1 reverse act,MITF inh,YB-1 expression,Shh pathway inh
C[C@H]1CN([C@@H](C)CO)C(=O)c2cc(NC(=O)Nc3ccccc3)ccc2O[C@@H]1CN(C)C(=O)Nc1ccc2c(c1)OCO2,nt,1,0.11,-42
C[C@@H]1CN([C@H](C)CO)C(=O)c2cc(NC(=O)Nc3ccc(F)cc3)ccc2O[C@H]1CN(C)S(=O)(=O)c1ccccc1,-2.4,-62,-0.027,nt
Cc1ccc(S(=O)(=O)N(C)C[C@@H]2OCCCC[C@@H](C)Oc3ccc(NC(=O)CCCN(C)C)cc3C(=O)N([C@H](C)CO)C[C@@H]2C)cc1,nt,-1,0.13,-19
Cc1ccccc1OCC(=O)NC(=S)Nc1ccccc1-c1nc2ccccc2s1,-0.2,-17,nt,nt
C[C@@H]1CN([C@H](C)CO)C(=O)c2cccc(NC(=O)Nc3ccc(C(F)(F)F)cc3)c2O[C@@H]1CN(C)Cc1ccc(Cl)c(Cl)c1,-4.0,10,0.26,31
COc1ccc(NC(=O)Nc2ccc3c(c2)C(=O)N([C@H](C)CO)C[C@H](C)[C@H](CN(C)S(=O)(=O)c2cccs2)O3)cc1,-0.6,-33,0.032,1
Cc1ccc(S(=O)(=O)Nc2ccc3c(c2)C(=O)N([C@@H](C)CO)C[C@H](C)[C@@H](CN(C)S(=O)(=O)c2ccc(F)cc2)O3)cc1,1.0,0,0.34,5
Cc1ccc(S(=O)(=O)N(C)C[C@@H]2Oc3c(NS(=O)(=O)c4ccccc4)cccc3C(=O)N([C@H](C)CO)C[C@@H]2C)cc1,0.7,7,-0.62,34
CC(C)(C)c1ccc(=O)[nH]n1,0.6,3,-0.34,-21
COC(=O)c1c(NC(=S)Nc2ccn(C)n2)sc(C(=O)N(C)C)c1C,1.9,-1,nt,nt
CCc1ccc2c(c1)C(O)(CC(=O)c1ccco1)C(=O)N2 (stereo not given),0.8,-15,nt,nt
Cc1ccc(-c2c[n+](=O)c3c(n2[O-])CCC3)cc1,-0.2,-7,-0.13,-27
C[C@@H]1CN([C@@H](C)CO)C(=O)c2cc(N(C)C)ccc2O[C@@H]1CN(C)Cc1ccc(Oc2ccccc2)cc1,-0.5,10,-0.56,43
Cc1noc(C)c1NC(=O)N(C)C[C@H]1Oc2ccc(NC(=O)Nc3ccc(F)cc3)cc2CC(=O)N([C@@H](C)CO)C[C@H]1C,1.2,3,0.098,15
C[C@@H]1CN([C@H](C)CO)C(=O)Cc2cc(NC(=O)Nc3ccc(F)cc3)ccc2O[C@@H]1CN(C)Cc1ccc(-c2ccccc2)cc1,-3.8,6,-0.4,36
COc1ccc(NC(=O)Nc2ccc3c(c2)C(=O)N([C@@H](C)CO)C[C@H](C)[C@@H](CN(C)Cc2ccc(-c4ccccc4)cc2)O3)cc1,-5.1,8,-0.25,nt
C[C@@H]1CN([C@@H](C)CO)C(=O)c2cc(NC(=O)Cn3cnnn3)ccc2O[C@H]1CN(C)Cc1ccc(Oc2ccccc2)cc1,-1.3,1,-0.056,9
COc1ccc(N(CC(=O)Nc2cccc(SC)c2)S(C)(=O)=O)cc1Cl,0.9,4,nt,nt
COc1ccc(CN(C)C[C@H]2Oc3ccc(NC(=O)Nc4ccccc4)cc3C(=O)N([C@H](C)CO)C[C@@H]2C)cc1,0.3,-4,0.21,-1
C[C@@H]1CN([C@@H](C)CO)C(=O)Cc2cc(NC(=O)Nc3cccc4ccccc34)ccc2O[C@@H]1CN(C)Cc1ccc(C(=O)O)cc1,nt,-3,-0.087,-50
COc1ccccc1Nc1ncnc2c1cnn2Cc1ccccc1,2.5,-5,nt,nt
COc1ccc(CO[C@H]2O[C@H](CO)[C@@H](O)[C@H](O)[C@H]2NC(C)=O)c2cc(C)oc12,1.0,6,0.61,-4
CC(C)[C@H](NC(=O)OCc1ccccc1)C(=O)N[C@H](C=O)Cc1ccccc1,nt,-2,0.26,-2
C[C@H](CO)N1C[C@H](C)[C@H](CN(C)CC2CCCCC2)Oc2ccc(NC(=O)CCN3CCOCC3)cc2C1=O,nt,9,-0.2,nt
NC(=O)C1CCN(C(=O)CSc2ccccn2)CC1,3.0,-12,nt,nt

# Following part:
SMILES,PD-1 reverse act,MITF inh,YB-1 expression,Shh pathway inh
CC(C)NC(=O)Nc1ccc2c(c1)C(=O)N([C@H](C)CO)C[C@H](C)[C@H](CN(C)S(=O)(=O)c1cn(C)cn1)OCCCC[C@@H](C)O2,nt,-11,-0.17,-19
Cc1noc(C)c1S(=O)(=O)Nc1ccc2c(c1)C(=O)N([C@H](C)CO)C[C@@H](C)[C@@H](CN(C)Cc1ccc(Oc3ccccc3)cc1)O2,-1.6,9,0.2,43
O=S(=O)(c1ccccc1)c1ccc(S(=O)(=O)N2CCCCC2)s1,-2.1,9,0.4,15
COc1ccc(S(=O)(=O)Nc2cccc3c2O[C@H](CN(C)Cc2ccc(Oc4ccccc4)cc2)[C@H](C)CN([C@H](C)CO)C3=O)cc1,-0.4,5,-0.077,-14
CCOc1ccc2nc(C34CC5CC(CC(C5)C3)C4)ccc2c1,0.7,-14,-0.77,7
O=C(CSc1nnc(-c2ccncc2)n1-c1ccc(Cl)cc1)Nc1ccc(F)cc1F,0.0,-7,nt,nt
O=C(Nc1ccc(-c2nc3ccccc3o2)c(O)c1)c1cc(-n2cnnc2)ccc1Cl,-2.9,31,nt,nt
C[C@H](CO)N1C[C@H](C)[C@H](CN(C)S(=O)(=O)c2cn(C)cn2)Oc2ccc(NC(=O)CCN3CCOCC3)cc2C1=O,1.2,6,-0.2,-29
Cc1ccc(C)c(NC(=O)CSc2n[nH]c(-c3ccncc3)n2)c1,1.0,-9,nt,nt
C[C@H]1CN([C@@H](C)CO)C(=O)c2cccc(NC(=O)Nc3ccc(F)cc3)c2O[C@@H]1CN(C)C(=O)Nc1ccc(C(F)(F)F)cc1,-0.7,-4,0.2,-6
Cc1c(N=C2SCC(=O)N2/N=C\c2ccc(Br)cc2)c(=O)n(-c2ccccc2)n1C,0.7,-51,-0.18,-68
C[C@H](CO)N1C[C@H](C)[C@@H](CN(C)Cc2ccc(Oc3ccccc3)cc2)Oc2c(NC(=O)C3CCCCC3)cccc2C1=O,-2.8,48,-0.5,47
CCc1ccc(C(Nc2ccccn2)c2cc(Cl)c3cccnc3c2O)cc1 (stereo not given),-13,?,nt,nt
Brc1cccc(CNc2nc3ccccc3n2CCN2CCOCC2)c1,-2.9,-5,nt,nt
Cc1ccc(S(=O)(=O)N(C)C[C@@H]2Oc3ccc(NC(=O)C4CCCCC4)cc3CC(=O)N([C@H](C)CO)C[C@@H]2C)cc1,1.1,5,0.19,?
COc1ccc(NC(=O)Nc2cccc3c2O[C@@H](CN(C)S(=O)(=O)c2ccc(C)cc2)[C@H](C)CN([C@@H](C)CO)C3=O)cc1,nt,-6,-0.094,26
COC(=O)c1sc(NC(=O)COc2ccc(C(C)C)cc2)c(C#N)c1C,1.8,11,nt,nt
Cc1cccc(-c2nnc(SCC(=O)Nc3cc(C(F)(F)F)cc(C(F)(F)F)c3)n2C)c1,-0.1,43,nt,nt
Nc1nc2ccc(OC(F)(F)F)cc2s1,3.2,-44&-79,0.014&-1.2,68*!
C[C@@H]1CN([C@H](C)CO)C(=O)c2cccc(NC(=O)Nc3ccccc3)c2O[C@H]1CN(C)C(=O)Nc1ccc(C(F)(F)F)cc1,0.1,0,-0.016,-27
C[C@@H]1CCCCO[C@H](CN(C)Cc2ccncc2)[C@@H](C)CN([C@H](C)CO)C(=O)c2cc(NS(=O)(=O)c3ccccc3)ccc2O1,-0.7,1,0.17,-28
Cc1ccc(S(=O)(=O)N(C)C[C@H]2Oc3ccc(NC(=O)C4CCCCC4)cc3C(=O)N([C@@H](C)CO)C[C@H]2C)cc1,-0.6,-11,0.24,19
C[C@@H]1CN([C@@H](C)CO)C(=O)c2cc(NC(=O)CCN3CCOCC3)ccc2O[C@H]1CN(C)Cc1ccc(C(=O)O)cc1,4.2,6,-0.55,4
Cc1nc(N)sc1-c1nnc(SCC(=O)Nc2ccccc2C(F)(F)F)n1C,-0.6,3,nt,nt
C[C@@H]1CN([C@H](C)CO)C(=O)Cc2cc(N(C)C)ccc2O[C@@H]1CN(C)Cc1ccncc1,0.1,7,0.057,3
C[C@@H]1CN([C@@H](C)CO)C(=O)c2cc(NS(=O)(=O)c3cn(C)cn3)ccc2O[C@@H]1CN(C)S(=O)(=O)c1cccs1,0.5,2,0.25,-26

# Compound profiles (already shown):
# `COc1ccc(NC(=O)Nc2cccc3c2O[C@@H](CN(C)S(=O)(=O)c2ccc(C)cc2)[C@H](C)CN([C@@H](C)CO)C3=O)cc1` in the list: PD-1 reverse act = nt; MITF inh = -6; YB-1 expression = -0.094; Shh pathway inh = 26
# `CCc1ccc(C(Nc2ccccn2)c2cc(Cl)c3cccnc3c2O)cc1` (stereo not given) in the list: PD-1 reverse act = -13; MITF inh = ?; YB-1 expression = nt; Shh pathway inh = nt

# Pulled by structure from the list above:
SMILES,PD-1 reverse act,MITF inh,YB-1 expression,Shh pathway inh
Nc1nc2ccc(OC(F)(F)F)cc2s1,3.2,-44&-79,0.014&-1.2,68*!
C[C@@H]1CCCCO[C@H](CN(C)Cc2ccncc2)[C@@H](C)CN([C@H](C)CO)C(=O)c2cc(NS(=O)(=O)c3ccccc3)ccc2O1,-0.7,1,0.17,-28

# High-throughput results: PubChem, Broad Institute
